UCH37 DUB inh – blocks the human deubiquitinase UCH37 | Q9Y5K5 | purified proteasome/UCH37, Ub-AMC cleavage fluorescence | inhibition, % (test concentration not listed) | 330,000 tested, 0.33% active;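 active means mean of two replicates above 20%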;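 further: 0% = compound-free wells with enzyme and 100% = wells lacking proteasome; stock transfer was 100 nL into about 20 µL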
Target sequence (Q9Y5K5 whole entry, looked up): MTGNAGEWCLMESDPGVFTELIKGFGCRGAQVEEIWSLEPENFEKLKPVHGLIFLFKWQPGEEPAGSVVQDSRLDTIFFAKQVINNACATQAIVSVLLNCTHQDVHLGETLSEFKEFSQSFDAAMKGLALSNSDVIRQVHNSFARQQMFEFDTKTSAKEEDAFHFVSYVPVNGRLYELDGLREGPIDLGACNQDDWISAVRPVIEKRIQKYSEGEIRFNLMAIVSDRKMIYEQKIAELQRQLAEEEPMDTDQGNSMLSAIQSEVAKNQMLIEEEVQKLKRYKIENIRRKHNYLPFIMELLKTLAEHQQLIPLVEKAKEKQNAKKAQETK
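system = Proteasome-associated human UCH37 deubiquitinase | amount = 0.15 nM proteasome as dispensed | medium = pH 7.4 Tris-HCl (50 mM) with ovalbumin, ATP-MgCl2, DTT | incubation = 30 min preincubation with enzyme, 25 min cleavage at room temperature | detection = AMC fluorescence 355/460 nm | read-out basis = percent inhibition | controls = no-proteasome and no-compound wells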
Ecoli growth – inhibitors of Escherichia coli growth. OD600 absorbance (test concentration not listed). OD600, 23 h; active compounds read low. AID 1053175. 330,000 tested, 0.21% active;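 active means OD600 absorbance below the run mean of sample wells minus 3.6 SD, in any replicate, cut at about 0.56 in these data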;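 further: stock transfer was 300 nL into about 60 µL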
FGF22 binding – shifts melting point of recombinant human FGF22; calls only at 9.99 µM; 340,000 tested, 1.5% active; recombinant FGF22 thermal shift, SYPRO orange fluorescence; percent of sucrose octasulfate shift, DMSO zero;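 active means melting point raised past a set limit in the mean and every replicate; inconclusive means no clear call; three in four hits are not shown here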
Beta2AR agonist – human beta-2 adrenergic receptor agonism by FAP | P07550 | Am2.2-beta2AR cells, FAP receptor internalization, flow cytometry; reference of the scale not given here | response, % (no concentration beside the values) | 340,000 tested, 0.43% active | AID 504454;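 active means response above a set limit, near 3 SD of response in nonfluorescent compounds, cut at about 42% in these data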;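 further: stock transfer was 100 nL into about 11 µL; a reference agonist was the positive control; negative values mostly stem from fluorescent compounds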
LANA-H2B inh – blocks KSHV LANA binding to histone H2A/H2B | inhibition, % (concentration not given with the values) | cell-free LANA-H2A/H2B peptide, fluorescence polarization | 320,000 tested, 0.6% active; in the data active means inhibition mostly above about 10%, no sharp cut-off; inactive means mostly below about 6.7%;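 further: stock transfer was 7.5 nL into about 10 µL; 0% = median of vehicle wells and 100% = median of positive control wells; one replicate is shown; the record names a cut of 25% in any replicate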
HNF4A DNA FP – change in binding of human HNF4 alpha to DNA. P41235. HNF4a-FITC DNA binding, fluorescence polarization, 1 h. activity change, % at 10 µM. 360,000 tested, 0.3% active. AID 1224865; in the data active means activity change above about 30%, passing the limit was not always enough;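 further: controls were the assay level and a saturating level of protein; the project sought stronger binding though the title names inhibitors; some compounds called inactive have numbers as strong as hits; positive values seem to mean higher polarization but the record does not say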
Target sequence (P41235 whole entry, looked up): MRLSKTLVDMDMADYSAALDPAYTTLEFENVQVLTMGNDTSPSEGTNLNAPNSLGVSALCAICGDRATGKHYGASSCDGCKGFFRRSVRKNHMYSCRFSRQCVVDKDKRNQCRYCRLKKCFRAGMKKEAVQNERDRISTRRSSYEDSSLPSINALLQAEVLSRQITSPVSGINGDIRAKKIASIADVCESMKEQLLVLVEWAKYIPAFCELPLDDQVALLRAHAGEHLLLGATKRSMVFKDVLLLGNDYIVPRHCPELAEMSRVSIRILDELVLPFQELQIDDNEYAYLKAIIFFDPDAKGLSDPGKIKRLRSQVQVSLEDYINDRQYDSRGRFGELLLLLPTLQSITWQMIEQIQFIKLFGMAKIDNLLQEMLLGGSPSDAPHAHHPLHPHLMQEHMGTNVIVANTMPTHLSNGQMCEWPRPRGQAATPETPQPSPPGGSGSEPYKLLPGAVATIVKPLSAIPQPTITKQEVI
ALR H2O2 inh – inhibitors of human sulfhydryl oxidase ALR; inhibition, % (no concentration beside the values); purified ALR, DTT oxidation, H2O2 HRP-luminol luminescence; 290,000 tested, 3.8% active; P55789; AID 485317;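 active means mean and each replicate at 75% or more; inconclusive means only one of the two met; inactive means neither met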;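 further: stock transfer was 7.5 nL into about 7.5 µL; 0% = neutral wells and 100% = wells with inactivated enzyme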
Target sequence (P55789 whole entry, looked up): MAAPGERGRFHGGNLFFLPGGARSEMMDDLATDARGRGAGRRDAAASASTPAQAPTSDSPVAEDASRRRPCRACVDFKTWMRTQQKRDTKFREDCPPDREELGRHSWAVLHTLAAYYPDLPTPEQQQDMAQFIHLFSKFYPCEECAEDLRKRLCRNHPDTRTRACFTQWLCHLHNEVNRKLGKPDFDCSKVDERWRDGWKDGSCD
* = called active by the depositor; i = inactive; u = inconclusive; x = not tested or not shown; & = joins results of further samples. An excerpt; rates above refer to the full screens.

Results follow in this order: UCH37 DUB inh, Ecoli growth, FGF22 binding, Beta2AR agonist, LANA-H2B inh, HNF4A DNA FP, ALR H2O2 inh
> CC(C)(C)C(=O)N=C1SC2CS(=O)(=O)CC2N1c1ccc2c(c1)OCO2 (centres undefined)
    4.1, 0.76, x, 0, 3.8, -1.3, -22
> O=C(COC(=O)/C=C/c1ccc([N+](=O)[O-])cc1)NC(=O)NC1CCCCC1
    6.3, 0.73, i, 13, -1.3, 4.5, 1
> CCOC(=O)c1cc(-c2ccccc2)sc1NC(=O)C(C)Sc1nnc(C)s1 (centres undefined)
    5.2, 0.76, i, -4, -11, 2.7, -9
> Nc1nc2n(n1)C(c1ccco1)CC(c1ccc(Cl)c(Cl)c1)N2 (centres undefined)
    1.0, 0.65, x, 4, 2.2, 0.3, 70
> CCc1ccc(NC(=O)CSc2nnc(-c3n[nH]c4ccccc34)n2-c2ccccc2)cc1
    3.0, 0.71, x, -9, 9.0, 3.5, -28
> N/C(=N\OC(=O)c1cnn(-c2ccccc2)c1C(F)(F)F)c1cc(C(F)(F)F)cc(C(F)(F)F)c1
    6.2, 0.7, i, -5, -1.6, 1.0, -14
> CCCOc1cccc(-c2cc(C(=O)N/N=C/c3ccccn3)c3ccccc3n2)c1
    x, x, i, 16, 0.7, 7.3, -9
> CN1CCC(N(C)CC(C)(C)NS(=O)(=O)c2ccccc2)CC1
    1.4, 0.71, i, -1, -3.5, 1.0, -3
> NC(=O)[C@@H]1CCCN1Cc1nc(Cc2cccc(C(F)(F)F)c2)no1
    5.9, 0.69, i, 3, 1.4, 1.4, -1
> O=C(NNC(=O)c1ccccc1OCc1ccc(F)cc1)c1ccncc1
    6.6, 0.65, i, -5, -1.7, -0.3, -3
> CCC(C)NC(=O)c1c(C)cc(=O)oc1C (centres undefined)
    16, 0.76, x, -2, 8.9, -2.1, 9
> O=c1oc2ccccc2c2[nH]ccc12
    3.8, 0.65, i, -2, 4.4, 1.0, 3
> OCC1CCCN(c2ncnc3scc(-c4ccccc4)c23)C1 (centres undefined)
    3.5, 0.68, i, -2, -3.4, 2.5, -6
> CCCCNC(=S)N(CCO)Cc1cc2cc3c(cc2[nH]c1=O)OCCO3
    -86, 0.68, i, 4, -2.5, 0.0, -6
> Cc1cccc(N(C)C(=O)c2cc3cc4ccc(C)cc4nc3o2)c1
    -5.2, 0.66, x, -2, x, -1.3, x
> COc1ccc2c(c1)oc(=O)c1c3ccccc3[nH]c21
    -41, 0.73, i, 5, x, -5.9, x
> COc1cnc(-c2ccccn2)nc1Sc1ccc(C)cc1
    1.4, 0.64, i, -12, 1.9, -3.1, 4
> CCN(CC)S(=O)(=O)c1ccc(Cl)c(C(=O)Nc2cc(C)nn2-c2ccccc2)c1
    5.3, 0.7, i, 5, -0.9, 1.7, x
> COc1ccc(CCN=C(NS(=O)(=O)c2ccccc2)c2ccccc2)cc1OC
    x, x, i, 5, -2.2, -2.5, -2
> c1ccc([C@H]2CC3C[C@@H](c4ccccc4)N2O3)cc1
    1.5, 0.72, x, -2, x, 1.3, x
> COc1ccc(-c2cc(C(=O)N3CCCCCC3)no2)cc1
    3.0, 0.65, i, -3, -3.9, 3.4, -7
> COc1ccc(NC(=S)N(CCN(C)C)C(C)c2ccco2)cc1Cl (centres undefined)
    0.2, 0.67, i, 3, 0.7, -1.6, -54
> CC(C)(C)C(=O)Nc1ccc(/C=C/C(=O)c2ccco2)cc1
    -16, 0.66, i, 7, -6.7, 2.3, -2
> O=C(Cc1cccc(NC(=O)C2CCCN(C(=O)C3CCCCC3)C2)c1)Nc1cccc(C(=O)N2CCCCC2)c1 (centres undefined)
    0.8, 0.72, i, -5, x, -1.0, x
> Cc1cccc(-c2noc(CCCC(=O)NC3CCCCC3)n2)c1
    4.0, 0.7, i, -10, -0.2, -2.2, 2
> CC1(c2ccc3ccccc3c2)NC(=O)NC1=O (centres undefined)
    -1.4, 0.69, i, -2, 0.3, 0.6, -4
> COc1ccc(Cc2nc3ccc(C(=O)NCCSC)cc3o2)cc1
    x, x, i, 0, 3.1, 1.7, x
> CC1(C)C([N+](=O)[O-])C(c2ccc(Cl)cc2)NC(c2ccc(Cl)cc2)C1[N+](=O)[O-] (centres undefined)
    0.5, 0.72, i, 2, 1.8, -0.1, -3
> Cc1c(C(=O)NC(=S)Nc2ccc3c4c(cccc24)CC3)cccc1[N+](=O)[O-]
    2.0, 0.87, x, 12, -2.3, 9.5, -9
> Cc1ccc(CNc2oc(-c3ccco3)nc2C#N)cc1
    0.4, 0.65, x, -4, 2.6, -0.8, 34
> Cc1coc2c(C)c3oc(=O)c(CCC(=O)N[C@@H](C)C(=O)N[C@@H](Cc4ccccc4)C(=O)O)c(C)c3cc12
    -47, 0.8, i, -3, 5.1, -6.8, 9
> CCOC(=O)C1=C(C)C(c2ccc(OC)cc2)NC(=O)N1 (centres undefined)
    4.8, 0.72, i, 9, -1.1, 6.0, -15
> COC(=O)c1cc2sc(Cl)cc2n1CC(=O)NCC1CCCO1 (centres undefined)
    1.3, 0.74, x, -2, 1.4, 0.9, -14
> Cc1cc(NC(=O)CSc2nc3c(cc2C#N)CCCCC3)no1
    -5.1, 0.72, i, 3, -0.1, -0.2, 15
> O=C(CCn1cnc2ccccc21)N/N=C/C=C/c1ccccc1
    x, x, i, -4, 0.0, 0.6, -2
> O=C(Nc1ccccc1)N1CCN(C2c3ccccc3-c3ccccc32)CC1
    4.8, 0.71, i, 6, 7.0, -1.5, -5
> COc1cc2c(cc1OC)C(C(=O)NCc1cccnc1)C(c1cccnc1)N(C)C2=O (centres undefined)
    -2.0, 0.7, x, 3, -2.1, -1.0, -13
> CCn1c(SCC(=O)OC(C)C)nnc1-c1ccccc1
    2.1, 0.7, i, 4, -0.3, 2.8, -18
> COc1ccc(-c2csc3ncnc(N4CCN(c5ccccc5[N+](=O)[O-])CC4)c23)cc1
    4.3, 0.7, x, 10, 1.1, 1.6, -14
> O=C(CN1CCOCC1)N1CCN(S(=O)(=O)c2ccccc2)C1c1ccccc1 (centres undefined)
    1.5, 0.64, x, 12, -1.5, 0.4, -10
> Cc1ccc(-c2csc(NC(=O)/C=C/c3ccco3)c2C(=O)O)cc1
    16, 0.72, i, 12, -6.3, -2.7, 97*
> CCC1Nc2ncnc(N3CCCCC3)c2N(Cc2ccc(OC)cc2)C1=O (centres undefined)
    -0.4, 0.66, i, 4, -4.7, -3.5&3.0, 8
> COc1ccc(NC(=O)C(C)N2C(=O)c3ccccc3C2=O)cc1S(=O)(=O)N1CCOCC1 (centres undefined)
    2.3, 0.71, i, -2, 8.8, 2.8, -5
> CSCC[C@H](NC(=O)[C@H](Cc1ccccc1)n1c(=O)[nH]c2ccccc2c1=O)C(=O)N1CCC[C@H]1C(=O)O
    0.8, 0.63, i, -2, -8.0, 0.4, 10
> COc1ccc(/C=C/C(=O)OCC(=O)Nc2ccc(OC)c(S(=O)(=O)N3CCCCC3)c2)cc1
    3.4, 0.65, i, -2, 0.1, -0.4, -6
> COc1ccccc1CNC(=O)C1CCC(CNS(=O)(=O)c2ccc(C)cc2)CC1 (centres undefined)
    -0.5, 0.71, i, 5, 1.6, -3.0, 0
> O=C(Cn1cnc2c(OCc3ccccc3)ncnc21)NCCN1CCOCC1
    1.9, 0.72, i, -7, 4.0, -1.6, x
> COc1cccc(C(=O)NC(c2ccccc2)C2CCCC2)c1 (centres undefined)
    -0.3, 0.68, i, -4, 0.3, 1.8, -15
> O=C(COC(=O)CCC(=O)c1ccc(F)cc1)Nc1cccc(S(=O)(=O)N2CCCC2)c1
    1.7, 0.7, i, -5, 7.3, 0.1, -3
> COc1cc(C(C)=O)ccc1OC(=O)c1cc2cccc(OC)c2oc1=O
    6.4, 0.71, i, 0, 11, -1.5, 7
> O=C(O)c1cccc(-c2ccc(/C=N/n3cnnc3)o2)c1
    x, x, i, -2, 2.3, -4.7, -10
> C=CCN(CC=C)C(=O)C1CCN(S(=O)(=O)c2ccc(-n3cnnn3)cc2)CC1
    3.9, 0.67, i, -15, -2.2, 2.0, 0
> Cc1c(C(C)NC(=O)c2cc(COc3cccc4cnccc34)on2)cnn1C (centres undefined)
    -71, 0.7, i, -2, 25*, 7.0, -70
> NS(=O)(=O)c1ccc(CCNC(=O)c2cccc(S(=O)(=O)N3CCCC3)c2)cc1
    2.1, 0.71, i, -3, 0.5, -1.1, -1
> O=C1NC(=S)N/C1=C\c1cccnc1
    12, 0.63, i, -8, 1.3, 2.0, -1
> CCOc1ccccc1C1C(C(N)=O)=C(C)Nc2nc(CCCO)nn21 (centres undefined)
    -1.5, 0.75, i, 13, 3.0, 3.2, -2
> C1CCN2CC3CC(CN4CCCC[C@@H]34)[C@H]2C1
    x, x, i, -7, x, 4.5, x
> CN=C1SC(CC(=O)NCCc2ccc(OC)c(OC)c2)C(=O)N1C (centres undefined)
    5.3&-0.5, 0.69&0.73, i, 0&1, -5.9, 3.8&0.0, -7
> CCN1C(=O)C2C(c3ccccc3F)NC(Cc3ccc(O)cc3)(C(=O)OC)C2C1=O (centres undefined)
    -0.6, 0.69, x, 0, 3.2, 1.4, -12
> Cc1ccc(NC(=O)COC(=O)c2ccc3c(c2)OCO3)c(C)c1
    2.8, 0.69, i, 2, 0.9, -2.6, x

Single records, as listed above. Order of screens: UCH37 DUB inh	Ecoli growth	FGF22 binding	Beta2AR agonist	LANA-H2B inh	HNF4A DNA FP	ALR H2O2 inh
COc1cccc(C(=O)NC(c2ccccc2)C2CCCC2)c1 (centres undefined) is listed as -0.3	0.68	i	-4	0.3	1.8	-15
COc1ccccc1CNC(=O)C1CCC(CNS(=O)(=O)c2ccc(C)cc2)CC1 (centres undefined) is listed as -0.5	0.71	i	5	1.6	-3.0	0
CN=C1SC(CC(=O)NCCc2ccc(OC)c(OC)c2)C(=O)N1C (centres undefined) is listed as 5.3&-0.5	0.69&0.73	i	0&1	-5.9	3.8&0.0	-7
NS(=O)(=O)c1ccc(CCNC(=O)c2cccc(S(=O)(=O)N3CCCC3)c2)cc1 is listed as 2.1	0.71	i	-3	0.5	-1.1	-1
Cc1ccc(-c2csc(NC(=O)/C=C/c3ccco3)c2C(=O)O)cc1 is listed as 16	0.72	i	12	-6.3	-2.7	97*

Printed as active in LANA-H2B inh, among the entries above:
Results follow in this order: UCH37 DUB inh, Ecoli growth, FGF22 binding, Beta2AR agonist, LANA-H2B inh, HNF4A DNA FP, ALR H2O2 inh
> Cc1c(C(C)NC(=O)c2cc(COc3cccc4cnccc34)on2)cnn1C (centres undefined)
    -71, 0.7, i, -2, 25*, 7.0, -70

The list goes on.
Results follow in this order: UCH37 DUB inh, Ecoli growth, FGF22 binding, Beta2AR agonist, LANA-H2B inh, HNF4A DNA FP, ALR H2O2 inh
> CCCCC(=O)N/C(N)=N/c1nc2ccccc2o1
    1.5, 0.68, i, -7, -3.3, -1.9, x
> CCOc1ccc(C(=O)CCC(=O)N2CCN(c3ccc(O)cc3)CC2)cc1
    1.2, 0.73, i, 4, -3.0, 0.3, u
> Nn1cnnc1SCC(=O)Nc1ccc2c(c1)OCO2
    2.0, 0.66, x, 4, -2.3, -3.4, -13
> CCC(=O)Nc1ccc2ccccc2c1
    x, x, x, -8, 1.0, -0.6, -20
> O=C(NCc1ccc2c(c1)OCO2)C1CC(=O)N(CCc2ccccc2)C1 (centres undefined)
    7.2, 0.72, i, 1, 0.3, -3.6, 2
> O=C(NCc1cccs1)c1cc(S(=O)(=O)N2CCOCC2)ccc1N1CCCC1
    1.2, 0.69, i, -5, -7.6, 1.0, x
> Cn1c(=O)cc(SCC(=O)NCC2CCCO2)c2ccccc21 (centres undefined)
    -4.5, 0.72, x, -7, 4.4, 3.4, -5
> C/C(=N\N=c1/sc2ccccc2n1C)c1ccc(N2CCOCC2)cc1
    x, x, i, -4, 0.3, -0.8, 11
> CCOc1ccc(NC(=O)CCN2CCN(c3ccccc3)CC2)cc1
    4.0, 0.67, x, 0, -0.8, 3.6, 18
> COCCCNC(=O)c1c(-c2ccccc2)noc1C
    4.7, 0.7, x, 0, 0.0, -1.6, -9

Bioassay records: PubChem BioAssay, several laboratories
